BJeLR viability: MLPCN primary cell-based screen for lethality selective to Ras in HRASV12 cells; inhibition, % (concentration not given with the values); BJeLR (HRASV12) viability, CellTiter-Glo ATP luminescence, 48 h; reference of the scale not given here; hit rate 0.17% among 300,000;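 active = replicate mean above 50%; inconclusive = above 50% but judged a plate artefact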;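 also: 50 nL library stock added to about 25 µL; numbers are from one replicate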
Autofluor counter: flagged as autofluorescent in microsphere protease counterscreen | compound autofluorescence counterscreen, microsphere flow cytometry; stronger effect = higher value | fluorescence intensity (concentration not given with the values) | hit rate 3.1% among 360,000 | AID 624483;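 active = at least 3 SD above the mean of all compounds, about 16000 in these data; inconclusive = too few beads counted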;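 also: 100 nL of 1 mM stock went into each well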
PrP UTR inh: inhibition of PrP 5' UTR reporter expression. AID 488862, 2010. inhibition, % (concentration not given with the values). hit rate 0.35% among 340,000. cell-based PrP 5' UTR mRNA reporter, plate reader;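 active = every replicate at 50% or more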;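 also: 0 = median of the neutral control wells; tested in H4 reporter cells; numbers are from one replicate; inactives centre near -14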
Mtb hypoxia inh: PubChem AID 1159583. hit rate 0.1% among 300,000. fluorescence inhibition, % (test concentration not listed). M. tuberculosis hypoxia-regulated fluorescent reporter, fluorescence;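 active = 35 to 45% if threefold the growth effect, above 45% if 1.5-fold the growth effect; inactive = the rest, general growth blockers included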;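 also: wells of about 50 µL received 100 nL stock; 0% = vehicle wells and 100% = reference inhibitor wells; whole bacteria with a GFP reporter of the hypoxia response; strong numbers were not always called active; many hits fall short of the cut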
RN4220 kill: growth inhibition of S. aureus RN4220, primary screen, OD600; inhibition, % (no concentration beside the values); 16 h; AID 1259311, 2017; hit rate 0.33% among 330,000;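 active = z-score of -3 or lower and OD600 up to 0.18 on both plates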;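 also: plate controls were untreated cells for no effect and reference antibiotic for full effect; stock transfer was 100 nL into about 80 µL; one replicate is shown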
ugtP null kill: growth inhibition of ugtP-null S. aureus, primary screen, RN4220 ugtP deletion, OD600; hit rate 0.54% among 330,000; AID 1259309, 2017; 16 h; some inactives read as strong as hits; growth inhibition, % (concentration not given with the values);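 active = z-score under -3 and OD600 up to 0.15 on both plates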;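 also: plate controls were untreated wells for no effect and antibiotic for full effect; wells of about 80 µL received 100 nL stock; the first replicate is given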
Mtb hypoxia inh growth: recorded beside Mtb hypoxia inh, whose call it bears; growth inhibition, %; measured here: M. tuberculosis growth (absorbance);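 0% = vehicle and 100% = reference antibiotic; read after six days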
* marks the source's active call; other numbers are inactive results; ? = inconclusive; · = not tested or not shown.

Each structure is followed by: BJeLR viability	Autofluor counter	PrP UTR inh	Mtb hypoxia inh	Mtb hypoxia inh growth	RN4220 kill	ugtP null kill
1) O=C(NC(Cc1ccccc1)C(=O)O)C(=Cc1ccco1)NC(=O)c1ccco1 (configuration not stated)
  ·	·	·	4	3	-2.4	-7
2) CCC(C)(C)n1nnnc1C(c1ccc(OC)cc1)N1CCN(C(=O)c2ccco2)CC1 (configuration not stated)
  -6	6176	-18	10	7	3.0	4
3) Cc1ccc(-c2nn3c(C)nnc3s2)cc1NCc1c(F)cccc1Cl
  12	9124	-46	5	-2	3.8	-10
4) C#CCn1c(=NC(=O)c2sc3ccccc3c2Cl)sc2cc(S(N)(=O)=O)ccc21
  4	10485	-1	·	·	·	·
5) CC(C)CC1C2C(=O)N(c3ccccc3)C(=O)C2ON1c1ccccc1 (configuration not stated)
  -9	4463	-28	-8	3	1.6	1
6) O=C(NCCc1ccccc1)C1CCC(=O)N1CCc1ccccc1 (configuration not stated)
  1	3992	-13	-3	-3	4.0	-6
7) Cc1cccc(N(C(=O)CNC(=O)c2ccco2)C(C(=O)NCC2CCCO2)c2ccccc2)c1 (configuration not stated)
  2	4166	-13	14	5	5.1	4
8) COc1ccc(/C=N/NC(=O)COc2ccc(Cl)cc2Cl)cc1Cn1nc(C)cc1C
  -7	2614	2	·	·	·	·
9) O=C(CCn1c(=O)oc2ccccc21)Nc1nccs1
  -16	3012	-15	6	-2	4.5	4
10) Cc1noc(C)c1S(=O)(=O)N(C)CC1Oc2c(NC(=O)NC(C)C)cccc2C(=O)N(C(C)CO)CC1C (configuration not stated)
  ·	·	·	6	11	0.1	-7
11) O=C(COC(=O)c1ccc([N+](=O)[O-])cc1)Nc1ccc(Cl)cn1
  6	?	-2	4	-7	0.6	3
12) Cc1ccc(C(=O)Oc2cccc(NC(=O)c3cccs3)c2)cc1S(=O)(=O)N1CCOCC1
  2	4966	-17	·	·	-0.4	9
13) Cc1ccc(Nc2nnc(SCc3ccccc3)s2)cc1
  3	3573	-33	·	·	1.7	6
14) CCOc1ccc2nc(NC(=O)C(CCSC)NS(=O)(=O)c3cccs3)sc2c1 (configuration not stated)
  0	2141	-14	·	·	-3.3	8
15) N#CCc1cc2ccc3cccc4ccc(c1)c2c34
  -5	4871	0	17	-5	-5.8	41
16) NP(=O)(OCCCc1ccccc1)Oc1ccccc1 (configuration not stated)
  -1	3362	-12	18	9	4.0	-8
17) Cc1ccc(OCc2n[nH]c(=S)n2Cc2ccccc2)cc1
  6	4291	-32	-6	3	-5.5	11
18) Cc1cccc(NC(=O)C2CC2c2ccccc2)c1C (configuration not stated)
  -6	4142	-71	·	·	·	·
19) Cc1cccc(COc2ccc(/C=N/NC(=O)c3nnn(-c4nonc4N)c3CN3CCCCC3)cc2)c1
  0	7066	-13	·	·	·	·
20) COc1ccc(Cc2nc3ccccc3n2CC(=O)NN=Cc2ccccc2)cc1OC
  ·	·	·	13	0	-0.4	-1
21) CCOc1ccc(Br)cc1S(=O)(=O)Nc1ccc(Cl)c(S(=O)(=O)N(C)C)c1
  -3	8684	-11	9	0	7.4	0
22) N#CC(C(=O)Nc1cccc(Cl)c1)=C1Nc2ccccc2N1
  11	3423	-12	-2	-8	2.6	-14
23) CCCC(C(=O)Nc1cccc(S(=O)(=O)N2CCCC2)c1)c1ccccc1 (configuration not stated)
  2	?	-5	0	9	-3.0	-2
24) CCC(Sc1nc(N)c(NC(=O)c2ccco2)c(=O)[nH]1)C(=O)O (configuration not stated)
  -9	6128	-16	3	-1	0.4	1
25) CCOc1cc(CNCCO)cc(Br)c1OCc1cccs1
  15	10032	-34	15	9	0.2	-7
26) O=C1CCN(S(=O)(=O)c2ccc(Cl)cc2)N1
  4	9690	-3	9	18	-1.5	-3
27) O=C(NN=C1CCCCCCCCCCC1)c1cccc(S(=O)(=O)N2CCOCC2)c1
  5	2547	-5	5	6	8.3	-3
28) O=C(Nc1ccc(Br)cc1Br)c1cccc2c1C(=O)N(C1CCCCC1)C2
  -3	5880	-7	3	3	-2.5	-4
29) CCCCNC(=S)N1CCN(Cc2ccc3c(c2)OCO3)CC1
  0	3979	-20	4	6	7.0	17
30) CC1=C(C(=O)Nc2ccc(C)cc2)C(c2ccc(N(C)C)cc2)NC(=O)N1 (configuration not stated)
  0	11100	-3	0	-6	1.1	-1
31) COc1ccc(S(=O)(=O)Nc2cccc3c2O[C@H](CN(C)S(=O)(=O)c2ccc(OC)cc2)[C@@H](C)CN([C@H](C)CO)C3=O)cc1
  ·	3666	33	-1	9	7.3	8
32) CCN1C(=O)/C(=C\N2CCOCC2)SC1=S
  -3	5637	-22	2	9	-0.1	-7
33) Cc1nn(Cc2ccccc2)c(C)c1/C=N/NC(=O)c1cccnc1
  -6	2569	-9	·	·	·	·
34) O=C1CCCC(=NCc2ccco2)C1
  -1	9212	-13	15	3	3.9	6
35) CC(C)CCn1c(CN2CCN(Cc3ccccc3)CC2)nc2c1c(=O)n(C)c(=O)n2C
  0	20587*	-33	2	6	3.5	-15
36) CCS(=O)(=O)N1Cc2ccccc2CC1C(=O)N(C)Cc1ccc(OC)c(F)c1 (configuration not stated)
  6	5469	-22	13	15	1.3	2
37) Cc1cc(C)cc(NC(=O)N2c3ccccc3NC(=O)CC2C)c1 (configuration not stated)
  3	5723	-18	-9	3	1.6	-3
38) O=C(NC12CC3CC(CC(C3)C1)C2)c1ccc([N+](=O)[O-])cc1
  1	3089	-7	·	·	-0.5	3
39) Nc1nn(-c2ccccc2)c(N)c1N=Nc1ccccc1
  18	8864	-78	1	7	22	-2
40) Cc1ccc(C2=N/C(=C\c3cccc(F)c3)C(=O)O2)cc1
  8	4023	-18	2	0	1.5	3
41) O=C(c1ccccc1)n1nnc2ccccc21
  4	4830	-2	·	·	·	·
42) COc1cc(COCC(O)CN2CCc3ccccc3C2)cc(OC)c1OC (configuration not stated)
  3	1985	-11	15	4	6.2	4
43) O=C(Nc1cccc(-c2nc3ncccc3o2)c1)c1ccco1
  -1	2877	-18	·	·	5.4	4
44) COc1ccc(C2CC(c3cccs3)=NN2C(=O)CSc2nc(=O)n3cc(C)ccc3n2)cc1 (configuration not stated)
  5	5744	-12	-9	0	-1.0	0
45) COc1ccccc1N1C(=O)C2C3CC(c4ccccc4)C(C3)C2C1=O (configuration not stated)
  4	2520	-25	·	·	·	·
46) Cc1ccc2nc(SCC(=O)N3CCCCCC3)nc(=O)n2c1
  6	6249	-22	11	6	3.7	1
47) COCCN(Cc1cc2cc(C)c(C)cc2nc1Cl)C(=O)N1CCOCC1
  4	3418	-24	-2	18	2.3	0
48) COc1ccc(/C=N/n2nnnc2N)c(OC)c1
  5	3120	-6	·	·	·	·
49) Cn1c(=O)c2c(Nc3ccc(F)cc3)cc(=O)n(-c3ccccc3)c2n(C)c1=O
  4	6152	-23	-4	9	1.2	-1
50) CCOCCCN(C(=O)Cn1nnc2ccccc21)C(C(=O)NCc1ccco1)c1ccncc1 (configuration not stated)
  ·	4106	-22	·	·	-0.9	-6

The list continues.
Each structure is followed by: BJeLR viability	Autofluor counter	PrP UTR inh	Mtb hypoxia inh	Mtb hypoxia inh growth	RN4220 kill	ugtP null kill
51) CC(=O)NS(=O)(=O)c1ccc(NC(=O)CN2C(=O)C3C4C=CC(C4)C3C2=O)cc1 (configuration not stated)
  9	2519	-18	11	2	3.3	4
52) CCN1C(=O)N/C(=C/c2ccc(C)o2)C1=O
  0	2599	-23	3	9	4.1	0
53) COc1ccc(S(=O)(=O)NC(C)(C)C)cc1-c1nnc2c3ccccc3c(C)nn12
  -2	5856	-15	6	2	4.0	-2
54) O=C(CSc1nccc(=O)[nH]1)NC1CCCC1
  -2	6147	-8	3	-2	2.2	6
55) CN(C)c1ccc(C(C[N+](=O)[O-])c2c(N)n(C)c(=O)n(C)c2=O)c(F)c1C#N (configuration not stated)
  -4	2823	-15	16	12	4.1	-10
56) c1ccc(Cn2cc(-c3cccnc3)cn2)cc1
  ·	3978	-19	17	7	4.0	-1
57) Cc1ccc(NC2CCCN(C(=O)c3ccccc3N3CCOCC3)C2)cc1C (configuration not stated)
  8	4359	-8	1	5	1.3	4
58) CC(C)CN(CCNC(=O)CN1C(=O)COc2ccc(S(=O)(=O)N3CCOCC3)cc21)CC(C)C
  -16	5660	-8	6	8	1.7	4
59) Cc1cccc2c1-c1sc(C(=O)Nc3ccccc3N3CCN(C)CC3)cc1CO2
  12	4312	-15	2	1	-10	6
60) Cc1nnc2sc(-c3ccc(NC(=O)CSc4ccc(Cl)cc4)cc3)nn12
  -5	8946	-8	-5	-7	-4.5	-22
61) O=[N+]([O-])c1ccc(N2CCN(CCO)CC2)c2ncccc12
  -1	8816	-33	10	6	6.2	8
62) COc1cccc(NS(=O)(=O)c2ccc(S(=O)(=O)N3CCOCC3)cc2)c1
  -7	17066*	-25	9	11	11	-7
63) O=C(C1CCN(S(=O)(=O)c2cccc3nsnc23)CC1)N1CCCc2ccccc21
  -3	3518	-9	·	·	-4.9	-1
64) C/C(Cl)=C/Cn1c(NCCCn2ccnc2)nc2c1c(=O)[nH]c(=O)n2C
  7	3203	-23	·	·	-4.9	0
65) CCN1C(=O)CC2(C[N+]3(C)CCC2CC3)C1=O (configuration not stated)
  1	8628	-21	15	5	0.0	3
66) CC(C)C(NS(=O)(=O)c1cccc(C(F)(F)F)c1)C(=O)O (configuration not stated)
  5	4754	0	12	-6	1.9	-2
67) CN=c1scc(-c2ccc([N+](=O)[O-])cc2)n1N=Cc1ccco1
  ·	·	·	15	12	9.6	0
68) COC(=O)c1sc(C(F)(F)F)c(-c2ccccc2)c1S(=O)(=O)N1CCOCC1
  ·	3859	-27	5	10	9.4	7
69) Cc1c(C(=O)NCCN2C(=O)S/C(=C\c3cccs3)C2=O)cccc1[N+](=O)[O-]
  12	10195	-12	4	2	-2.6	-6
70) COc1ccc(N(CC(=O)NCCSC2CCCCC2)S(C)(=O)=O)c(OC)c1
  -11	18476*	-13	13	0	4.6	7

Some entries already given, reduced to PrP UTR inh, Mtb hypoxia inh growth and RN4220 kill:
| item | structure | PrP UTR inh | Mtb hypoxia inh growth | RN4220 kill |
| --- | --- | --- | --- | --- |
| 63 | O=C(C1CCN(S(=O)(=O)c2cccc3nsnc23)CC1)N1CCCc2ccccc21 | -9 | · | -4.9 |
| 64 | C/C(Cl)=C/Cn1c(NCCCn2ccnc2)nc2c1c(=O)[nH]c(=O)n2C | -23 | · | -4.9 |
| 65 | CCN1C(=O)CC2(C[N+]3(C)CCC2CC3)C1=O (configuration not stated) | -21 | 5 | 0.0 |
| 66 | CC(C)C(NS(=O)(=O)c1cccc(C(F)(F)F)c1)C(=O)O (configuration not stated) | 0 | -6 | 1.9 |

(further entries)
Each structure is followed by: BJeLR viability	Autofluor counter	PrP UTR inh	Mtb hypoxia inh	Mtb hypoxia inh growth	RN4220 kill	ugtP null kill
71) COC(=O)C1=C(c2cccc(OCc3ccccc3)c2)CC2CCC1N2C(=O)NCc1ccc([N+](=O)[O-])cc1 (configuration not stated)
  ·	·	·	10	1	-7.5	7
72) CCc1ccc(C(=O)C(C)OC(=O)c2nc3nc(C)cc(C)n3n2)cc1 (configuration not stated)
  -3	4574	-29	11	4	3.5	4
73) CC(C)c1oc(=O)cc2c1C(O)C1OC(=O)[C@@]3(C)CC(O)C(O)[C@@]2(C)C13 (some centres not stated)
  ·	·	·	8	2	1.7	-8
74) COc1cc(/C=N/NC(=O)c2ccc(NC(=O)C3CC3)cc2)ccc1OC(C)=O
  2	6077	-4	·	·	·	·
75) COc1ccc(Cn2nnnc2C(c2ccccc2)N2CCN(C3CCCC3)CC2)cc1 (configuration not stated)
  -1	3483	-5	·	·	5.0	15
76) Cc1cc(C)c(NC(=O)CON=C2CCCc3nonc32)c(C)c1
  ·	·	·	-4	3	2.3	-1
77) O=C(Nc1ccc(S(=O)(=O)Nc2nccs2)cc1)c1nn(-c2ccccc2)ccc1=O
  3	5565	-10	16	21	2.2	-5
78) CCOc1ccccc1-c1cc(C(=O)NN=Cc2ccc(O)c(OC)c2)c2ccccc2n1
  ·	·	·	8	0	0.7	-1
79) CC1CC(C)CN(c2ncc3c(n2)CC(c2ccccc2Cl)CC3=O)C1 (configuration not stated)
  -15	3287	-24	·	·	·	·
80) C/C(=N/N1CCN(c2ccccn2)CC1)c1cccc([N+](=O)[O-])c1
  9	8293	-23	·	·	·	·
81) COc1ccc(CN(C)C(=O)Cc2ccc(OC)c(S(=O)(=O)N3CCOCC3)c2)cc1OC
  ·	3744	5	2	2	0.4	3
82) CCCCc1nc(SCC(=O)Nc2ccc(S(N)(=O)=O)cc2)n[nH]1
  1	2827	-14	·	·	-1.4	7

Source: PubChem BioAssay (several laboratories)
